Beta apoptosis = blocks beta cell apoptosis. protection from apoptosis, % (no concentration beside the values). 300,000 compounds, 0.8% hits. INS-1E cytokine-induced death, ATP luminescence, 48 h; percent of positive-control rescue, neutral wells zero. AID 435005;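 active = all replicates at 75% or more, or half of them and the mean; inconclusive = half reach 75% but not the mean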;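 note: 0% = cytokine-treated negative control wells and 100% = positive control rescue; higher means more ATP so stronger rescue from cytokine killing; wells of about 40 µL received 100 nL stock; the first replicate is given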
A1 inh = inhibitors of the anti-apoptotic protein A1, read as caspase activation. MEF A1-2A-BIM cells, Caspase-Glo 3/7 luminescence, 3 h; percent of clofoctol response, vehicle zero. caspase activation, % (no concentration beside the values). 330,000 compounds, 0.066% hits. AID 2462;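 active = over half of replicate activation scores above 10%, or exactly half above 10 with the replicate mean above 10; inconclusive = replicate mean below 10 yet half the replicates above 10; inactive = over half of replicates below 10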;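 note: wells of about 30 µL received 50 nL stock; many hits fall short of the cut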
T cruzi repl = blocks replication of Trypanosoma cruzi; 300,000 compounds, 1.4% hits; T. cruzi beta-gal in NIH3T3, luminescence, 90 h; inhibition, % (test concentration not listed);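 active = mean inhibition across valid replicates above about 55%, limit read from the data; inconclusive = mean below that limit but half or more replicates reach it; inactive = mean below it, under half of replicates reach it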;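 note: signal also drops with host cell toxicity which is not excluded here; 0% = plate median of DMSO wells and 100% = zero luminescence signal; higher percent means less beta-gal luminescence so fewer parasites; stock transfer was 50 nL into about 50 µL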
RanGTP-Imp inh = inhibitors of RanGTP-importin-beta interaction, primary screen, biochemical, FRET, CFP-Ran, YFP-importin-beta, homogeneous; inhibition, % (concentration not given with the values); 300,000 compounds, 1.1% hits; cell-free CFP-Ran/YFP-importin-beta FRET ratio;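 active = most replicates above 15%; inconclusive = exactly half above 15%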;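 note: 0% = DMSO wells and 100% = Ran loaded with GDP instead of GTP; wells of about 40 µL received 100 nL stock; the first replicate is given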
Vif A3G = HIV-1 Vif–A3G interaction blockers – biochemical, TR-FRET, GST-Vif 1-94, biotin-A3G peptide, dose response retest, primary screen (AID 1117319) | TR-FRET GST-Vif / biotin-A3G peptide binding; higher % means a stronger effect; test concentration not given here; strong numbers were not always called active | inhibition, %; hits with a dose series show IC50 in µM | 260,000 compounds, 0.57% hits;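 active = above the screen mean plus three standard deviations and confirmed in dose response; inconclusive = results disagree or hit not tested in dose response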;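 note: Vif residues 1-94 fused to GST binding biotinylated APOBEC3G peptide 110-148; 0% = full assay without inhibitor and 100% = GST in place of GST-Vif; retest series ran down from 100 µM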
Ecoli rRNA inh = inhibits bacterial ribosomal RNA function over humanized ribosomes. E. coli WT GFP vs humanized-ribosome RFP mutants, fluorescence, 24 h; stronger effect = lower value; DMSO median 0, no signal -100. GFP signal change (wild-type ribosome), % (no concentration beside the values). 350,000 compounds, 1.6% hits. AID 720706;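 active = significant combined selectivity score with lowered wild-type GFP, culture density cut under 30%, mutant RFP and density less affected; inactive = any of these conditions unmet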; note: one replicate is shown; some compounds called inactive have numbers as strong as hits
AF4-AF9 inh = blocks AF4 peptide binding to human AF9; AID 651704; 350,000 compounds, 0.47% hits; inhibition, % at 10 µM; AlphaScreen, biotin-AF4 peptide binding to FLAG-AF9; P42568;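 active = every replicate reaching a set inhibition limit, whatever the replicate mean, cut at about 25% in these data; inconclusive = mean inhibition reaches that limit but some replicates miss it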;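 note: 0% = plate neutral control median and 100% = total signal loss; the record names both 10 and 1 µM as test concentration; the first replicate is given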
Target sequence (P42568 whole entry, looked up): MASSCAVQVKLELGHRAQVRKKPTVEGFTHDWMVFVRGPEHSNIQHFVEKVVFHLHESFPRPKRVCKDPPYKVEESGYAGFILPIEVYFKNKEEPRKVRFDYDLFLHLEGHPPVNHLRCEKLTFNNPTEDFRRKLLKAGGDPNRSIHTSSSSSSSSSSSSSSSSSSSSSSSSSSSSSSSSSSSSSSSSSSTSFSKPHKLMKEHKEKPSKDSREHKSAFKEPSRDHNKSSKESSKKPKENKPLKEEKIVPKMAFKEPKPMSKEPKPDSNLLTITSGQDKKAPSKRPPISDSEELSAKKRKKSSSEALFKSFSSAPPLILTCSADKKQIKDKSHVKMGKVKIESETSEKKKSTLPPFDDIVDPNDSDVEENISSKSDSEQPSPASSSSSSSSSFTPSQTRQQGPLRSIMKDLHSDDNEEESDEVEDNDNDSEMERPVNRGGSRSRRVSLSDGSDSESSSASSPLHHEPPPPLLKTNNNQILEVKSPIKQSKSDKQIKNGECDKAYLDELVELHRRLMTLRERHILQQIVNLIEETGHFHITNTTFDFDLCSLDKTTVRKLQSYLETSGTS
Calb FLC = affects C. albicans growth with fluconazole; growth inhibition, % (no concentration beside the values); C. albicans CaCi-2 (fluconazole-resistant clinical isolate) + fluconazole, Alamar Blue growth, 48 h; AID 1979; 300,000 compounds, 0.57% hits;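 active = most replicates above 75%; inconclusive = exactly half above 75%; inactive = most below 75%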;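 note: all wells also contain fluconazole at 8 µg/ml as a sub-toxic cotreatment; 0% = median of DMSO wells and 100% = median of geldanamycin control wells; wells of about 8 µL received 7.5 nL stock; the first replicate is given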
Ecoli rRNA inh OD600 = recorded beside Ecoli rRNA inh, whose call it bears; OD600 change, %; measured here: OD600 growth;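 optical density of the mix in the first replicate; 0 = DMSO median and -100 = no signal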
Ecoli rRNA inh RFP = also measured in Ecoli rRNA inh; calls as there; RFP signal change, %; measured here: RFP humanized mutant strains;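 first replicate; 0 = DMSO median and -100 = no signal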
* = called active by the depositor; ? = inconclusive; . = no result given; & = joins results of further samples.

SMILES	Beta apoptosis	A1 inh	T cruzi repl	RanGTP-Imp inh	Vif A3G	Ecoli rRNA inh	Ecoli rRNA inh OD600	Ecoli rRNA inh RFP	AF4-AF9 inh	Calb FLC
O=C(COc1ccc2cc(-c3ccccc3)c(=O)oc2c1)NCC1CCC(C(=O)O)CC1 (stereo unspecified)	-2	-5.3	-20	1.6	.	.	.	.	.	-2
COc1ccc(-c2cc(C(=O)NCCCn3ccnc3)no2)cc1OC	5	-0.9	-9	3.3	74%	.	.	.	.	-16
O=C(NCC(=O)N(c1ccccc1F)C(C(=O)NC1CCCC1)c1cccnc1)c1ccco1 (stereo unspecified)	-10	?	3	-1.7	.	1	6	-1.7	-14	9
CCc1cccc(C)c1NC(=O)COC(=O)CNS(=O)(=O)/C=C/c1ccccc1	-12	0.1	-6	-3.2	.	.	.	.	.	3
CCOc1ccc2oc(-c3ccccc3)c(C(=O)O)c2c1	-3	-0.7	-15	2.3	-1%	.	.	.	1.6	-12
Cc1cc(Br)ccc1OCCN1CC(C)OC(C)C1 (stereo unspecified)	3	0.8	-2	2.4	0%	-11	-14	-14	4.1	8
O=C(CCc1ccccc1)NNC(=O)c1ccccc1F	-2	0.3	-12	2.3	-4%	34	15	4.3	-21	18
C[C@H](NC(=O)c1nc[nH]c1C(=O)NCc1ccc(CNC(=O)OC(C)(C)C)cc1)C(=O)OC(C)(C)C	9	0.9	5	?	.	4	-3	4.4	8.3	3
CCc1nc2ccccc2c(=O)n1NC(=O)c1c(O)c2cccc3c2n(c1=O)CCC3	-5	0.2	-6	2.6	2%	.	.	.	.	-4
N#CC1=C(N)OC2=C(C(=O)CCC2)C1c1ccc2c(c1)OCO2 (stereo unspecified)	-6	0.2	-15	2.1	-2%	12	6	-2.9	-1.7	-1
Cc1noc(NC(=O)c2cccc(Cl)c2Cl)c1C#N	6	0.5	2	4.3	6%	-13	-16	-2.6	1.6	-2
COc1ccccc1S(=O)(=O)Cc1ccc(C(=O)N2CCOCC2)o1	.	-0.5	-5	3.4	5%	9	4	-1.8	-1.7	-3
CC1CC(C)CN(S(=O)(=O)c2cccc3cccnc23)C1 (stereo unspecified)	-7	0.4	16	-0.3	0%	-2	0	-3.5	-4.9	-5
OCCN1C2=NCCCN2c2ccccc21	-2	-0.6	-11	4.1	-10%	3	8	1.7	-4.7	-2
COc1ccc(/C=C2/C(=O)ON=C2c2ccccc2)cc1OC	-10	1.0	6	?	9%	.	.	.	.	-9
C/C(=N\N1CCN(Cc2ccc(Cl)cc2)CC1)c1ccc(F)cc1	2	0.2	16	0.3	0%	-18*	0.6*	-2.4*	9.2	3
COc1ccc(Cl)cc1-n1c(C)cc(C(=O)O)c1C	1	-2.1	-11	8.0	4%	0	-6	0.1	.	5
Cc1ccc(/C=N/Nc2nc(Cl)c(Cl)cc2Cl)s1	0	1.1	8	-3.0	31%	.	.	.	.	-4
O=C(NCc1ccco1)C1CC(=O)N(c2ccc(Cl)cc2)C1 (stereo unspecified)	.	0.8	-2	-1.0	.	20	16	-4.7	-0.5	0
CC(=O)N1CCC(=NNS(=O)(=O)c2ccc(C)c([N+](=O)[O-])c2)CC1	-3	0.4	-16	?	-2%	0	8	1.6	.	-9
CCN(CC)C(=O)c1[nH]cnc1C(=O)Nc1ccc(Cl)cc1	-1	0.3	.	.	.	3	-4	-6.9	3.8	.
CCn1c(SCC(=O)N2CCc3ccccc32)nnc1-c1c[nH]c2ccccc12	7	0.2	4	?	1%	.	.	.	.	-1
CCOC(=O)C1(Cc2ccccc2Cl)CCN(Cc2csc(C(C)=O)c2)CC1	3	0.2	49	2.7	5%	-23*	-18*	-4.5*	3.8	-29
COc1cc(C2=CN(Cc3ccccc3)CCC2=O)cc(OC)c1OC	-3	0.4	.	.	.	0	4	-1.1	-19	.
NC(=O)C1CCN(C(=O)CN2C(=O)c3ccccc3S2(=O)=O)CC1	-7	0.6	-1	4.0	32%	.	.	.	.	-3
Remaining list, next part.
SMILES	Beta apoptosis	A1 inh	T cruzi repl	RanGTP-Imp inh	Vif A3G	Ecoli rRNA inh	Ecoli rRNA inh OD600	Ecoli rRNA inh RFP	AF4-AF9 inh	Calb FLC
COc1ccc(CNC(C)C23CC4CC(CC(C4)C2)C3)c(OC)c1OC (stereo unspecified)	2	0.2	7	2.0	-1%	-3	-4	1.5	1.0	30
COCCCNC(=O)COc1ccc(-c2nccc(-c3ccccn3)n2)cc1	2	0.1	8	0.4	11%	.	.	.	.	6
S=C(NCCCc1ccccc1)Nc1ccccc1	1	-1.9	.	.	.	-20	-25	-5.8	1.2	-37
O=C(CSc1ccc([N+](=O)[O-])cn1)Nc1ccccc1N1CCOCC1	1	-0.8	-6	-1.1	.	16	12	3.1	0.5	2
CCCCNC(=O)c1ccc2nc(-c3ccco3)c(-c3ccco3)nc2c1	-2	3.3	13	3.0	1.2µM*	-5	9	-9.0	0.0	17
C=CCn1c(-c2ccoc2C)n[nH]c1=S	0	-0.2	-13	0.8	-5%	.	.	.	.	-2
COc1ccc(C(=O)Nc2ccccc2C(=O)N/N=C/c2ccco2)cc1	8	-4.8	-2	8.4	1%	-5	1	19	2.9	2
COc1cccc(CNC(=O)Cc2nc3nc(C)cc(C)n3n2)c1	-3	-0.9	0	?	.	.	.	.	.	0
O=[N+]([O-])c1ccc(N2CCN(c3ccc(Cl)nn3)CC2)cc1NC1CC1	4	0.3	3	?	.	.	.	.	.	6
c1cncc(CNC2CCCc3ccccc32)c1 (stereo unspecified)	-6	-0.1	0	-2.9	7%	.	.	.	.	-23
Cc1nc(SCC(=O)NC2CCCCC2)[nH]c(=O)c1C	-1	-0.3	-1	4.9	-5%	12	3	-0.6	-15	-5
O=C(CCn1nnc2ccccc21)N/N=C\Cc1ccccc1	-2	0.0	5	0.8	-2%	.	.	.	-0.2	-16
CCC(C)[C@H](NC(=O)NCc1ccc(Cl)cc1)C(=O)O (stereo partly specified)	-4	-0.4	-12	?	.	16	8	4.5	-48	-2
CCOC(=O)C1(CCOc2ccccc2)CCN(Cc2cccc(OC)c2)CC1	9	0.2	32	-3.5	-6%	-14	-17	2.3	-5.7	-1
O=C(Nc1nc(-c2ccc(-c3ccccc3)cc2)cs1)C1CCCO1 (stereo unspecified)	5	-1.2	2	-1.6	7%	.	.	.	.	0
CN(Cc1nccs1)C(=O)c1ccc2nc(Cc3ccccc3F)oc2c1	-6	-2.9	-3	3.1	2%	-9	-3	1.5	-11	8
CCOC(=O)[C@@H]1[C@H]2COc3ccc(Br)cc3[C@@H]2N2C(=O)N(c3ccc(Br)cc3)C(=O)[C@]12C	-3	-0.9	-3	1.1	.	9&7	19&-1	-0.4&-1.0	1.5	26
COc1ccc(C2NC(=S)NC3=C2CCc2ccccc23)cc1OC (stereo unspecified)	-6	1.1	-3	-1.4	-7%	.	.	.	.	?
Cc1ccc(NC(=O)N(Cc2ccc3c(c2)OCO3)Cc2cc3cc4c(cc3[nH]c2=O)OCCO4)cc1	13	0.8	41	4.5	10%	.	.	.	.	1
CCOc1ccc(CNC(=O)C2CCC(=O)N2C2CCCC2)cc1OC (stereo unspecified)	0	0.4	-1	-2.1	?	.	.	.	.	3
Cc1cc(C)cc(NC(=O)C(=O)NCCCN2CCCC2=O)c1	.	0.0	2	3.9	1%	1	1	-1.4	-12	-6
CCc1ccc(NC(=O)CSc2nnc(Cc3cccn3C)n2-c2ccc(F)cc2)cc1	2	-0.6	9	6.0	13%&-4%	0	1	0.9	6.8	-16
C=CCn1c(SCCC)nc(O)cc1=O	-10	0.3	-5	-2.0	7%	-1	-6	1.6	-4.6	6
COc1ccc(C)cc1S(=O)(=O)N(CC(=O)N1CCCC1)c1ccc(C)cc1	-7	-0.8	-1	2.6	.	5	8	5.1	-1.1	5
CCCCCCCCS(=O)c1sc2nc(C)cc(C)c2c1N (stereo unspecified)	-9	0.2	-1	0.0	-7%	-8	-13	8.9	.	-6

Exported with values under each structure: part of the list above
Fields: Beta apoptosis	A1 inh	T cruzi repl	RanGTP-Imp inh	Vif A3G	Ecoli rRNA inh	Ecoli rRNA inh OD600	Ecoli rRNA inh RFP	AF4-AF9 inh	Calb FLC
CC(=O)N1CCC(=NNS(=O)(=O)c2ccc(C)c([N+](=O)[O-])c2)CC1
 : -3	0.4	-16	?	-2%	0	8	1.6	.	-9
CCN(CC)C(=O)c1[nH]cnc1C(=O)Nc1ccc(Cl)cc1
 : -1	0.3	.	.	.	3	-4	-6.9	3.8	.
CCn1c(SCC(=O)N2CCc3ccccc32)nnc1-c1c[nH]c2ccccc12
 : 7	0.2	4	?	1%	.	.	.	.	-1
CCOC(=O)C1(Cc2ccccc2Cl)CCN(Cc2csc(C(C)=O)c2)CC1
 : 3	0.2	49	2.7	5%	-23*	-18*	-4.5*	3.8	-29
COc1cc(C2=CN(Cc3ccccc3)CCC2=O)cc(OC)c1OC
 : -3	0.4	.	.	.	0	4	-1.1	-19	.
NC(=O)C1CCN(C(=O)CN2C(=O)c3ccccc3S2(=O)=O)CC1
 : -7	0.6	-1	4.0	32%	.	.	.	.	-3

Next section
SMILES	Beta apoptosis	A1 inh	T cruzi repl	RanGTP-Imp inh	Vif A3G	Ecoli rRNA inh	Ecoli rRNA inh OD600	Ecoli rRNA inh RFP	AF4-AF9 inh	Calb FLC
CC1(C)CC(NS(=O)(=O)c2cccc3ccccc23)CC(C)(C)N1	-5	0.0	-3	-1.3	1%	15	15	1.5	-0.2	-15
NC(=O)c1cccnc1Oc1ccc(Cl)cc1Cl	-1	2.8	-7	6.9	-8%	-31*	-2.7*	-5.5*	1.6	2
CCOC(=O)N1CCN(C(=O)Cn2c(C)cc3ccccc3c2=O)CC1	-13	-0.1	-8	3.1	17%	.	.	.	.	3
CCCOC(=O)c1ccc(NC(=O)c2ccccc2OC)cc1	-1	-0.4	9	-2.9	.	-13	-5	2.2	-4.2	21
CCS(=O)(=O)c1ccc(O)c(NC(=O)Nc2ccc(C(C)(C)C)cc2)c1	-1	-0.8	-13	-1.6	?	0	2	2.9	-1.4	-1
COc1ccc(OC)c(S(=O)(=O)n2cnc3cc(C)c(C)cc32)c1	-10	0.1	14	6.9	-5%	.	.	.	.	4
COc1ccc(C)cc1S(=O)(=O)N(CC(=O)Nc1cccc([N+](=O)[O-])c1)c1cc(C)cc(C)c1	-1	0.3	22	5.1	0%	14	6	-3.5	-1.9	7
CCOC(=O)c1cccc(NC(=S)N2CCN(c3ncc4c(=O)c(C(=O)O)cn(CC)c4n3)CC2)c1	-20	0.7	5	0.8	9%	-48	-77	-6.2	-1.8	7
CCCSc1nnc(CN2CCOCC2)n1C	.	-1.9	-12	-2.2	-1%	.	.	.	.	-13

This is a subset (hit frequency here may not be typical).
